PABP polyA inh: blocks human PABP binding to poly(A) RNA | inhibition, % at 35 µM | P11940 | AID 2014 | fluorescence polarization | actives 1% (n = 290,000);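 active = 50% or more with normal probe brightness, or confirmed in later tests; about a fifth of its hits are not listed in these tables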;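 note: calls also rest on retests at 20 µM and on dose response follow-up; controls were probe without protein and protein plus probe with vehicle; some compounds called inactive have numbers as strong as hits; many hits fall short of the cut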
Target sequence (P11940 whole entry, looked up): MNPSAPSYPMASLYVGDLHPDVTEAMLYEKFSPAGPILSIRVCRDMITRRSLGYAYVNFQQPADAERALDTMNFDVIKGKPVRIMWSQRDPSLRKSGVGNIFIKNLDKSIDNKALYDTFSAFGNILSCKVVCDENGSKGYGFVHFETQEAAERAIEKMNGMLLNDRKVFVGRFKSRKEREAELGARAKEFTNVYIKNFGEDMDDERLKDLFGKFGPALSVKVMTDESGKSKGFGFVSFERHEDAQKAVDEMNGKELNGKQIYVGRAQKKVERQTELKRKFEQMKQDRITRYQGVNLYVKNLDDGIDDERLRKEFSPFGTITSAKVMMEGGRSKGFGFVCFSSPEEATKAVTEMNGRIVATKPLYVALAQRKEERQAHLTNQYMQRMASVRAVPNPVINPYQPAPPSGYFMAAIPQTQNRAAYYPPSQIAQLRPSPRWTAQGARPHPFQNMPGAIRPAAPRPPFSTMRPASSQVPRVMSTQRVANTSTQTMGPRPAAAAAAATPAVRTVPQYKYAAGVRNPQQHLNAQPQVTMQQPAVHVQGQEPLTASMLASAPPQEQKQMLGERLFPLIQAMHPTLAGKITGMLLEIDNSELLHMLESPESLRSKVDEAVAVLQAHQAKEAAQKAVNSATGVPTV
MT1-MMP act inh: inhibitors of human MT1-MMP activation; AID 651647; actives 0.061% (n = 360,000); HT1080 RFP-PRO-GFP cells, GFP/RFP ratio fluorescence, overnight; percent of plate control window, DMSO zero; P50281; GFP/RFP ratio change, % at 20 µM;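 active = GFP/RFP ratio change of at least 30% with cell ATP level not reduced by more than half and red fluorescence within 50% of control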; note: strong numbers were not always called active
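system = RFP-PRO-GFP reporter HT1080 cells | dosing = 20 µM single dose, 1% DMSO | timing = overnight cell settling, then overnight compound exposure, 37 °C, 5% CO2 | read-out basis = GFP/RFP fluorescence ratio | controls = DMSO and RFP-L50D-GFP cell wells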
CSC inhib: blocks cancer stem cells; actives 1.1% (n = 300,000); cancer stem cell-like cells viability, luminescence; AID 2717; inhibition, % at 7.5 µM;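 active = mean at 75% or more and at least half the replicates too; tested in HMLE shEcad cells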;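 note: 0% = median of negative and 100% = median of positive control wells; the first replicate is given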
Yeast UUG start: alters start codon recognition fidelity in yeast | activity score, % at 18.7 µM | AID 602363 | actives 0.13% (n = 350,000) | S. cerevisiae UUG-firefly luciferase reporter, luminescence/redox ratio;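 active = replicate mean at a twofold rise or more, about +100% in these data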;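 note: firefly luciferase made from a UUG start codon reports start codon fidelity; reporter light over untreated wells divided by growth signal over untreated wells; some hits fall short of that in this replicate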
eIF4H FP inh: inhibitors of RNA binding by human eIF4H; inhibition, % at 35 µM; Q15056; actives 0.94% (n = 290,000); eIF4H fluorescence polarization binding assay;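 active = 50% or more with normal probe brightness, or confirmed in later tests; about a fifth of its hits are not listed in these tables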;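 note: calls also rest on retests at 20 µM and on dose response follow-up; 0% = protein and probe with vehicle and 100% = probe without protein; strong numbers were not always called active; many hits fall short of the cut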
Env fusion inh: blocks HIV Env-driven cell-cell fusion. HeLa-JRFL Env/CEM21 cell fusion, luciferase. inhibition, % at 12.3 µM. actives 1.1% (n = 360,000);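 active = mean replicate inhibition score of at least 50 and every replicate individually at or above 50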;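 note: 0% = plate neutral controls and 100% = maraviroc near 300 nM; one replicate is shown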
Rce1 inhib: inhibitors of yeast Ras-converting enzyme; Q03530; yeast membranes, quenched prenylated peptide cleavage fluorescence; actives 0.27% (n = 290,000); AID 2563; calls only;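 active = fall in fluorescence gain of 50% or more versus controls, with final raw signal at or below 3038400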;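 note: plate controls were neutral control wells for no effect and wells lacking membranes for full effect; tested at 10 µM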
eIF4H FP inh retest: also measured in eIF4H FP inh; calls as there; inhibition, %; compound at 20 µM; confirmation average;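 mean of two retest wells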
PABP polyA inh retest: further read-out of PABP polyA inh, marked with its call; inhibition, %; compound at 20 µM; confirmation repeats;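 mean of two retest wells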
MT1-MMP act inh RFP: also measured in MT1-MMP act inh; calls as there; RFP signal change, %; measured here: RFP expression control read;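 0 = vehicle wells; hits needed this value within 50% of zero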
The depositor's hits bear a star; i = inactive; x = not tested or not shown.

A first look:
SMILES	PABP polyA inh	MT1-MMP act inh	MT1-MMP act inh RFP	CSC inhib	Yeast UUG start	eIF4H FP inh	Env fusion inh	Rce1 inhib	others
COc1ccc(/C=C/C(=O)O)cc1S(=O)(=O)NC1CCS(=O)(=O)C1 (stereo unspecified)	29	-1	2	-4	x	5	15	i
O=C(NCC(c1cccs1)N1CCOCC1)c1ccc(Br)o1 (stereo unspecified)	8	-6	-10	-11	0	-5	x	i

All compounds of this part (from the top)
SMILES	PABP polyA inh	MT1-MMP act inh	MT1-MMP act inh RFP	CSC inhib	Yeast UUG start	eIF4H FP inh	Env fusion inh	Rce1 inhib	others
COc1ccc(/C=C/C(=O)O)cc1S(=O)(=O)NC1CCS(=O)(=O)C1 (stereo unspecified)	29	-1	2	-4	x	5	15	i
O=C(NCC(c1cccs1)N1CCOCC1)c1ccc(Br)o1 (stereo unspecified)	8	-6	-10	-11	0	-5	x	i
COc1cc(S(=O)(=O)N2CCOCC2)ccc1NC(=O)COC(=O)C12CC3CC(CC(C3)C1)C2	-5	6	-6	0	4	4	x	i
CC(C(=O)Nc1ccccc1-c1ccccc1)N1CCN(C(=O)c2ccccc2)CC1 (stereo unspecified)	-8	-3	-5	-9	-1	-2	10	i
Cc1nc2sc(C(c3ccc(F)cc3)N3CCOCC3)c(O)n2n1 (stereo unspecified)	-7	-9	2	7	4	-8	-103	i
COc1ccccc1-c1ccc(/C=N/O)o1	9	-4	-2	-13	-12	-8	-8	i
COc1ccc(C(=O)OCc2cc3cccc(C)c3[nH]c2=O)cc1	-13	-2	-5	-4	3	4	x	i
Cc1cc(SCC(=O)OC/C(O)=C(\C#N)c2nc3ccccc3[nH]2)c(C)cc1Br	30	-3	2	0	-16	62	7	i	eIF4H FP inh retest=5;PABP polyA inh retest=19
COCCNC(=O)CCCn1c(=O)c2ccccc2n(Cc2ccccc2C#N)c1=O	-5	4	5	-7	-18	-8	7	i
COc1ccc(-n2nnnc2SCC(=O)N2C(C)CCCC2C)c(OC)c1 (stereo unspecified)	6	18	-6	-11	13	0	15	i
C=CCn1c(SCC(=O)Nc2cc(C)on2)nc2c([nH]c3ccccc32)c1=O	0	0	6	3	-16	10	22	i
O=C(NC1CCCCC1)C(c1ccco1)N(Cc1ccco1)C(=O)c1ccco1 (stereo unspecified)	17	-2	4	12	-20	2	x	i
Cc1ccc2c(Cl)c(C(=O)Nc3ccc4c(c3)OCO4)sc2c1	-15	5	5	1	-4	1	-31	i
CCC1NC(=O)c2cccnc2-n2c1nc1ccc(F)cc1c2=O (stereo unspecified)	x	1	3	x	-6	x	25	x
O=C(O)c1ccccc1NS(=O)(=O)c1ccc2c(c1)OCCO2	3	0	2	-10	-8	-3	14	i
Cc1ccc(O)c(C(=O)c2cnc3c(c2)c(C)nn3C)c1	3	0	-1	8	-17	-8	-8	x
COc1ccc(C(CNc2ccc(S(=O)(=O)N3CCCC3)cc2[N+](=O)[O-])N2CCCC2)cc1 (stereo unspecified)	15	-7	-11	x	x	-3	-11	i
Cc1cccc(N(C)S(=O)(=O)c2c(C)[nH]c(C)c2C(=O)N2CCCC2)c1	4	-1	6	-6	-10	1	3	i
COc1cc(O)oc1C=Nc1ccc(Cl)cc1Cl	0	6	5	-2	-5	-2	-52	x
N#CCCNCC1(c2ccccc2)CCCC1	2	19	3	5	4	3	x	i

Sorted by heavy-atom count (smallest number first): some entries from above.
SMILES	PABP polyA inh	MT1-MMP act inh	MT1-MMP act inh RFP	CSC inhib	Yeast UUG start	eIF4H FP inh	Env fusion inh	Rce1 inhib	others
COc1cc(O)oc1C=Nc1ccc(Cl)cc1Cl	0	6	5	-2	-5	-2	-52	x
COc1ccc(C(=O)OCc2cc3cccc(C)c3[nH]c2=O)cc1	-13	-2	-5	-4	3	4	x	i
COc1ccc(-n2nnnc2SCC(=O)N2C(C)CCCC2C)c(OC)c1 (stereo unspecified)	6	18	-6	-11	13	0	15	i
CC(C(=O)Nc1ccccc1-c1ccccc1)N1CCN(C(=O)c2ccccc2)CC1 (stereo unspecified)	-8	-3	-5	-9	-1	-2	10	i

Continued.
SMILES	PABP polyA inh	MT1-MMP act inh	MT1-MMP act inh RFP	CSC inhib	Yeast UUG start	eIF4H FP inh	Env fusion inh	Rce1 inhib	others
Cc1ccc(C(=O)Nc2ccccc2)cc1S(=O)(=O)N1CCN(C)CC1	5	3	6	-9	-10	-8	23	i
CC(=O)Nc1sc(/C(C#N)=C\c2cccc(Cl)c2)nc1-c1ccc(C)cc1	81*	-2	68	34	-1	127*	-2	i	eIF4H FP inh retest=95*;PABP polyA inh retest=92*
CC1(C)Cc2nc(-c3ccccc3)nc(NNC(=O)c3ccco3)c2CO1	-9	-5	0	-4	-11	-2	5	i
Cc1cc(N/N=C\c2ccccc2)nc(-c2ccccc2O)n1	2	-14	-13	53	x	7	-16	i
O=C(NCc1ccncc1)Nc1ccc(Cl)cc1Cl	-5	4	0	24	-17	6	x	i
O=C(NCCCCc1ccccc1)c1ccc(F)cc1	x	6	3	-14	-12	x	11	i
COc1ccc(-c2nc(N)sc2C2(O)C(=O)Nc3c(Br)cc(F)cc32)cc1OC (stereo unspecified)	8	3	7	-6	5	-7	-14	i
COCCCN1C(=O)C(CC(=O)NCCN2CCOCC2)CC(C(=O)N(C)C)=C1C (stereo unspecified)	x	-1	-2	x	-14	x	-17	x
COc1ccc(N2C(=O)CC(Sc3n[nH]c(-c4cccc(C)c4)n3)C2=O)cc1 (stereo unspecified)	4	5	2	-8	-4	0	4	i
COc1ccc(CCNC(=O)CN2C(=O)NC3(CCOc4ccccc43)C2=O)cc1 (stereo unspecified)	x	0	-2	x	-12	x	-6	x
S=C(NCCc1ccccc1)N/N=C/c1c(Cl)cccc1Cl	-6	2	0	7	x	-1	x	i
COc1ccc(C=NNC(=O)c2ccccc2OCc2ccc(F)cc2)c(OC)c1	x	0	-9	24	-14	x	-13	x
CCCCn1cnc2sc(-c3ccccc3)cc2c1=O	-7	3	-1	-10	-15	-5	-299	i
COc1ccccc1NC(=O)CN1CCN(CC(=O)Nc2ccc(S(N)(=O)=O)cc2)CC1	4	4	-5	-9	-12	3	-7	i
COc1ccc(OCc2csc(N)n2)cc1	0	0	-4	2	x	1	-8	i
COc1ccccc1N(CC(O)Cn1c2ccccc2c2ccccc21)S(=O)(=O)c1ccccc1 (stereo unspecified)	-10	-4	-3	11	-3	-10	14	i
CC1(C)NC(=O)N(CCCCOc2ccc3c(c2)CCC3)C1=O	-3	7	-5	15	8	-2	x	i
Cc1occc1-c1nnc(SCC(=O)NCc2ccco2)n1CC(C)C	1	-2	5	-3	-17	9	x	i
CC(C)(c1ccccc1)c1ccc(OCCn2cnc3ccccc3c2=O)cc1	-8	12	-4	6	-12	6	14	i
CCOc1ccc(N2C(=O)CC(Cc3ccccc3OC)C2=O)cc1 (stereo unspecified)	3	0	3	-18	-4	75	-21	i	eIF4H FP inh retest=0;PABP polyA inh retest=3
Cc1c(Cl)cccc1Nc1nc(N)nc(CSC(=S)N2CCOCC2)n1	11	1	0	5	x	5	-63	i
CC(=O)Nc1cc2c(cc1C(=O)c1ccc(C)cc1)OCCO2	0	0	2	-9	-6	-12	x	i
CC(Sc1ccccc1)C(=O)NCC(c1ccco1)N1CCCCC1 (stereo unspecified)	x	-7	-4	0	-15	x	7	i
O=C([O-])c1cc(-c2ccccc2)cc(-c2ccccc2)[n+]1CCc1ccc(Cl)cc1	x	-9	-26	x	-15	x	21	x
O=C(O)COc1ccccc1/C=N/NC(=O)CN1CCN(Cc2ccc(Cl)cc2)CC1	-1	2	5	-9	-10	-9	0	i
Cn1cnnc1Sc1ccc(CN2CCN(C3CCCC3)C(CCO)C2)o1 (stereo unspecified)	-2	-8	-2	2	x	2	-40	i
O=C(O)COc1cccc2nsnc12	11	-9	0	-14	-25	2	-32	i
Cc1ccc(NC(=O)CSCC(=O)N2CCN(Cc3ccc4c(c3)OCO4)CC2)cc1	6	-3	-8	0	-21	-7	x	i
Cn1cc(CC(=O)NCCN2CCOCC2)c2ccccc21	10	4	2	7	x	0	-5	i
N#CSCC(=O)c1cccc2ccccc12	-21	5	4	27	-33	-9	-39	x
O=C1[C@@H](Oc2ccccc2)[C@@H](c2ccncc2)N1c1ccncc1	x	5	6	x	-8	x	-13	x
CCCc1cc(=O)[nH]c(SCC(=O)c2cc(C)n(CC(F)(F)F)c2C)n1	-2	5	-3	-10	x	-5	2	i
Nc1ccc(Br)c2c1C(=O)c1ccccc1C2=O	44	x	x	18	x	34	x	i
CC(=O)Nc1ccc(Nc2nnc(-c3ccc(C)c(S(=O)(=O)NCCO)c3)c3ccccc23)cc1	0	4	4	-4	-7	22	8	i
O=C(NNc1c2ccccc2nc2ccccc12)c1ccccc1Cl	5	9	0	12	-18	4	3	i
COC(=O)c1ccc2c(=O)n3c(nc2c1)SCC(c1ccccc1)=N3	-5	-2	-1	-14	3	-8	-19	i
N/C(=N\OC(=O)c1cccs1)c1ccc(Cl)cc1	0	2	-3	-9	-22	2	-87	i
Cn1nc(-c2ccccc2F)c2cc(C(=O)N3CCN(C(=O)c4ccco4)CC3)sc21	x	4	2	0	2	x	-17	i
Cc1ccc(N(C(=O)c2ccc(S(=O)(=O)N3CCOCC3)cc2)C2C=CS(=O)(=O)C2)cc1 (stereo unspecified)	-3	-1	3	-5	-15	2	x	i
O=C(CN1CCN(C(=O)c2ccccc2)CC1)Nc1cc(S(=O)(=O)N2CCCC2)ccc1Cl	x	-2	-6	-9	-8	x	x	x
COc1ccc2sc(-c3ccc(S(C)(=O)=O)cc3)c(-c3ccc(C(N)=O)cc3)c2c1	x	-8	0	x	-10	x	-11	x
CCc1ccc(-c2cc(C)no2)cc1S(=O)(=O)N1CCCN(Cc2ccc(F)cc2)C1	9	-3	1	-10	x	0	-8	i
COC(=O)c1ccc(CN(c2ccccc2Cl)S(C)(=O)=O)cc1	8	2	0	8	-8	4	9	i
COc1ccc2nc3cc(Cl)ccc3c(C#N)c2c1	34	-7	0	10	2	32	-4	i
COc1ccc(CCCNC(=O)C2(C)Cc3c(-c4ccc5c(c4)OCO5)ccnc3O2)cc1 (stereo unspecified)	x	-1	-11	x	-1	x	-142	x
OCCC1CN(Cc2ccccn2)CCN1C1CCCC1 (stereo unspecified)	2	3	4	1	x	-2	10	x
O=C(CN1CCN(Cc2ccc(F)cc2Cl)C1=O)NCCc1ccccc1	3	-2	3	-4	4	-2	5	i
CNC(=S)N1N=C(c2ccccc2)CC1c1ccccc1Cl (stereo unspecified)	2	-17	-14	0	-13	-12	11	i
N#Cc1ccccc1OCC(=O)Nc1ccc(S(=O)(=O)N2CCOCC2)cc1	x	-3	-1	8	-10	x	-5	x
O=C(NC(=O)N1CCN(C(c2ccccc2)c2ccccc2)CC1)c1ccccc1	3	-19	-11	7	2	2	-35	i
C/C(=N/NC(=O)c1ccccn1)c1ccco1	9	3	-1	12	-52	5	26	i
COc1ccc(CNCC(O)(c2ccccc2)c2ccccc2)cc1OC	-3	-1	-7	-1	x	0	34	i
C=CCn1c(SCn2nnc3ccccc3c2=O)nnc1C1CCCCC1	3	1	1	-15	-18	-3	x	i
Cc1ccc(N2C(=O)C3C4C=CC(CC4)C3C2=O)cc1Br (stereo unspecified)	-1	2	3	85*	-9	-3	11	i
COc1cc(C(=O)NC(=S)Nc2csc(-c3ccc(F)cc3)n2)cc(OC)c1OC	35	4	2	-2	-17	0	-9	i
COc1ccc(-c2csc(NC(=O)c3ccc(S(=O)(=O)N4CCc5ccccc5C4)cc3)n2)cc1	-1	-4	-17	x	x	-3	x	i
Cc1cccc(OCC(=O)Nc2ccc3c(c2)nc2n3CCOC2)c1	8	3	4	-2	-7	-15	x	i
COc1ccc(C(=O)CNc2ccccc2Br)cc1	-1	-3	-5	1	-4	-3	-29	i
O=c1cc(CN2CCN(c3ccccc3F)CC2)c2c(ccc3ccccc32)o1	x	-2	-11	x	-13	x	13	x

A portion of the library; the hit share may differ from the screen's.
